Compound activity (PubChem)
Calb FLC – C. albicans growth inhibition with fluconazole, primary screen, CaCi-2 strain, Alamar Blue fluorescence; C. albicans CaCi-2 (fluconazole-resistant clinical isolate) + fluconazole, 48 h; growth inhibition, % (test concentration not listed); 300,000 compounds, 0.57% hits; AID 1979, 2009;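 active = most replicates above 75%; inconclusive = exactly half above 75%; inactive = most below 75%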;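 note: all wells also contain fluconazole at 8 µg/ml as a sub-toxic cotreatment; 0% = median of DMSO wells and 100% = median of geldanamycin control wells; wells of about 8 µL received 7.5 nL stock; the first replicate is given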
A1 inh – caspase 3/7 activation in MEF A1-2A-BIM cells, primary screen, A1 inhibitor project, cell-based, luminescence, HTS; Caspase-Glo 3/7 luminescence, 3 h; percent of clofoctol response, vehicle zero; caspase activation, % (concentration not given with the values); 330,000 compounds, 0.066% hits;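 active = over half of replicate activation scores above 10%, or exactly half above 10 with the replicate mean above 10; inconclusive = replicate mean below 10 yet half the replicates above 10; inactive = over half of replicates below 10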;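 note: wells of about 30 µL received 50 nL stock; many hits fall short of the cut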
Beta cell apopt – inhibitors of cytokine-induced beta cell apoptosis, primary screen, luminescence | INS-1E cytokine-induced death, ATP luminescence, 48 h; percent of positive-control rescue, neutral wells zero | protection from apoptosis, % (no concentration beside the values) | 300,000 compounds, 0.8% hits | AID 435005, 2010;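 active = all replicates at 75% or more, or half of them and the mean; inconclusive = half reach 75% but not the mean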;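 note: 0% = cytokine-treated negative control wells and 100% = positive control rescue; higher means more ATP so stronger rescue from cytokine killing; wells of about 40 µL received 100 nL stock; the first replicate is given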
T cruzi repl – inhibitors of intracellular T. cruzi growth, primary screen, luminescence, NIH3T3 host cells | T. cruzi beta-gal in NIH3T3, 90 h | inhibition, % (test concentration not listed) | AID 1885, 2009 | 300,000 compounds, 1.4% hits;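 active = mean inhibition across valid replicates above about 55%, limit read from the data; inconclusive = mean below that limit but half or more replicates reach it; inactive = mean below it, under half of replicates reach it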;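 note: signal also drops with host cell toxicity which is not excluded here; 0% = plate median of DMSO wells and 100% = zero luminescence signal; higher percent means less beta-gal luminescence so fewer parasites; stock transfer was 50 nL into about 50 µL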
B2AR ag – beta2AR agonists driving receptor internalization, primary screen, cell-based, FAP fluorogen, flow cytometry; Am2.2-beta2AR cells; reference of the scale not given here; response, % (concentration not given with the values); 340,000 compounds, 0.43% hits; AID 504454, 2011;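 active = response above a set limit, near 3 SD of response in nonfluorescent compounds, cut at about 42% in these data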;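 note: stock transfer was 100 nL into about 11 µL; a reference agonist was the positive control; negative values mostly stem from fluorescent compounds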
Target sequence (P07550 whole entry, looked up): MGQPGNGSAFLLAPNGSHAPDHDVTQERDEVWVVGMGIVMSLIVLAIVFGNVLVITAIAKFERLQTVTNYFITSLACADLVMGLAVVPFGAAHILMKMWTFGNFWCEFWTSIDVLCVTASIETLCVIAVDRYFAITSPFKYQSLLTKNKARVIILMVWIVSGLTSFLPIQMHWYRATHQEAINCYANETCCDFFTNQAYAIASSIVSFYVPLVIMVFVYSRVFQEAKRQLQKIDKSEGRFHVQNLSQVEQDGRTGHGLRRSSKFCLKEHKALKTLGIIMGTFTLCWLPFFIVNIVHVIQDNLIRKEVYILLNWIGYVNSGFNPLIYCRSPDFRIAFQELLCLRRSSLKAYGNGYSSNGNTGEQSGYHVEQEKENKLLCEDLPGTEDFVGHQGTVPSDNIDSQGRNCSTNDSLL
ALR inh – inhibitors of human ALR sulfhydryl oxidase, primary screen, biochemical, H2O2 detection, HRP-luminol luminescence, single point; purified ALR, DTT oxidation; 290,000 compounds, 3.8% hits; FAD-linked sulfhydryl oxidase ALR (Homo sapiens), P55789; AID 485317, 2010; inhibition, % (concentration not given with the values);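 active = mean and each replicate at 75% or more; inconclusive = only one of the two met; inactive = neither met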;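 note: stock transfer was 7.5 nL into about 7.5 µL; 0% = neutral wells and 100% = wells with inactivated enzyme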
Target sequence (P55789 whole entry, looked up): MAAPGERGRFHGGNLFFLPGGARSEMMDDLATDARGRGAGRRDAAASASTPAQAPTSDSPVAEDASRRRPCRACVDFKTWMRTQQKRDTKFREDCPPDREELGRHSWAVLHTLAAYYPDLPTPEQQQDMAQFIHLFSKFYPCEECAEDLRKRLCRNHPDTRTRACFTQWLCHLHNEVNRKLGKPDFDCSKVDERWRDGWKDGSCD
LANA-H2A inh – blockers of LANA interaction with H2A/H2B – biochemical, FP readout, HTS, primary screen | cell-free LANA-H2A/H2B peptide, fluorescence polarization | inhibition, % (concentration not given with the values) | 320,000 compounds, 0.6% hits | AID 2629, 2010; in the data active = inhibition mostly above about 10%, no sharp cut-off; inactive = mostly below about 6.7%;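 note: stock transfer was 7.5 nL into about 10 µL; 0% = median of vehicle wells and 100% = median of positive control wells; one replicate is shown; the record names a cut of 25% in any replicate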
rRNA inh HTS – reduced GFP signal of wild-type E. coli, primary screen, bacterial rRNA inhibitor project, GFP/RFP fluorescence, OD600, single point | E. coli WT GFP vs humanized-ribosome RFP mutants, 24 h; stronger effect = lower value; DMSO median 0, no signal -100 | GFP signal change (wild-type ribosome), % (test concentration not listed) | 350,000 compounds, 1.6% hits;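 active = significant combined selectivity score with lowered wild-type GFP, culture density cut under 30%, mutant RFP and density less affected; inactive = any of these conditions unmet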; note: one replicate is shown; some compounds called inactive have numbers as strong as hits
rRNA inh HTS OD600 – recorded beside rRNA inh HTS, whose call it bears; OD600 change, %; measured here: OD600 growth;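 optical density of the mix in the first replicate; 0 = DMSO median and -100 = no signal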
rRNA inh HTS RFP – second read-out of rRNA inh HTS, no call of its own (marks repeat the call); RFP signal change, %; measured here: RFP humanized mutant strains;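 first replicate; 0 = DMSO median and -100 = no signal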
The depositor's hits bear a star. An excerpt; rates above refer to the full screens.

O=C(OCC(=O)N1CCc2ccccc21)c1ccncc1 was read as A1 inh 1.0, Beta cell apopt -2, B2AR ag 8, ALR inh -8, LANA-H2A inh 3.1, rRNA inh HTS 2, rRNA inh HTS OD600 9 and rRNA inh HTS RFP -4.2.
`O=C(Cn1ncc2c(=O)oc3ccccc3c21)NCC1COc2ccccc2O1` (stereo unspecified) gave Calb FLC -5, A1 inh 0.9, Beta cell apopt 3, T cruzi repl -11, B2AR ag -5, ALR inh -7, LANA-H2A inh 5.8, rRNA inh HTS 3, rRNA inh HTS OD600 10 and rRNA inh HTS RFP 3.3.
For C=CCN(C(=O)c1csnn1)C(C(=O)NC1CCCCC1)c1ccccc1 (stereo unspecified) the results were Calb FLC 3, A1 inh -0.2, Beta cell apopt -3, T cruzi repl -15, B2AR ag -5, ALR inh -8, LANA-H2A inh 3.8, rRNA inh HTS -1, rRNA inh HTS OD600 5 and rRNA inh HTS RFP 0.6.
`CCn1cc(C(=O)NCc2ccccc2OC)c(=O)c2ccc(C)nc21` gave Calb FLC -5, A1 inh -0.6, Beta cell apopt 0, T cruzi repl -10, ALR inh -1 and LANA-H2A inh 5.0.
`COC(=O)c1cc(=O)n(-c2ccc(C(F)(F)F)cc2)[nH]1` gave Calb FLC -32, A1 inh -0.4, Beta cell apopt -1, T cruzi repl -4, B2AR ag 7, ALR inh 54, LANA-H2A inh -3.0, rRNA inh HTS -19, rRNA inh HTS OD600 -5 and rRNA inh HTS RFP 14.
CCn1c(=O)c2cc(C(=O)NCC(OC)OC)sc2c2ccccc21 was read as Calb FLC 10, A1 inh -0.6, Beta cell apopt 3, T cruzi repl 0, B2AR ag 8, LANA-H2A inh 1.1, rRNA inh HTS -3, rRNA inh HTS OD600 0 and rRNA inh HTS RFP -0.7.
`COc1ccc(S(=O)(=O)N2CCC(C(=O)N3CCN(c4ccccc4OC)CC3)CC2)cc1` gave Calb FLC 4, A1 inh -0.4, Beta cell apopt 1, T cruzi repl 7, B2AR ag -3, ALR inh 1 and LANA-H2A inh 2.9.
Screening Cc1ccc(NC(=O)C2CCN(S(=O)(=O)c3c(C)noc3/C=C/N(C)C)CC2)cc1 returned Calb FLC 0, A1 inh -1.9, Beta cell apopt 0, T cruzi repl 1, B2AR ag 5, ALR inh 1, LANA-H2A inh -3.3, rRNA inh HTS 21, rRNA inh HTS OD600 3 and rRNA inh HTS RFP 12.
For CC(=O)N(C)c1nc(-c2ccc(Cl)cc2)cs1 the results were Calb FLC -17, A1 inh -1.1, T cruzi repl -2, B2AR ag -2, ALR inh -2 and LANA-H2A inh -3.9.
Cc1c(CN2CCC(n3nccc3NC(=O)CCc3ccccc3)CC2)cnn1C was read as Calb FLC 4, A1 inh 0.6, Beta cell apopt 1, T cruzi repl 1, B2AR ag -3, ALR inh -5, LANA-H2A inh -0.9, rRNA inh HTS 9, rRNA inh HTS OD600 6 and rRNA inh HTS RFP 1.0.
For C=CCn1c(SCc2ccccc2)nc2c1c(=O)[nH]c(=O)n2C the results were Calb FLC -10, A1 inh -0.5, Beta cell apopt 7, T cruzi repl -8, B2AR ag -3, ALR inh 12, LANA-H2A inh 3.0, rRNA inh HTS 3, rRNA inh HTS OD600 -2 and rRNA inh HTS RFP -0.2.
For CCOC(=O)/C(=N\Nc1cc(Cl)ccc1Cl)N1CC(C)OC(C)C1 (stereo unspecified) the results were Calb FLC -1, A1 inh -0.1, Beta cell apopt -9, T cruzi repl 16, B2AR ag 3, ALR inh -8, LANA-H2A inh -6.7, rRNA inh HTS 4, rRNA inh HTS OD600 -2 and rRNA inh HTS RFP 1.4.
COc1ccc2[nH]c(=O)c(CN(C(=O)C3CCCO3)c3ccc(C)cc3)cc2c1 (stereo unspecified) was read as Calb FLC -4, A1 inh 0.8, Beta cell apopt 1, T cruzi repl 8, B2AR ag 1, ALR inh -6 and LANA-H2A inh -2.8.
For Cc1ccc(C(=O)N(C)CCOc2ccccc2)cc1S(=O)(=O)N1CCOCC1 the results were A1 inh -0.3, Beta cell apopt -4, B2AR ag -9, ALR inh -1, LANA-H2A inh -0.2, rRNA inh HTS 2, rRNA inh HTS OD600 2 and rRNA inh HTS RFP -1.2.
Screening COc1ccc(NC(=O)c2cc(S(=O)(=O)N3CCOCC3)ccc2N2CCOCC2)cc1 returned Calb FLC 1, A1 inh 0.2, Beta cell apopt -5, T cruzi repl -4, B2AR ag 3, ALR inh -1, LANA-H2A inh -3.3, rRNA inh HTS 1, rRNA inh HTS OD600 1 and rRNA inh HTS RFP -1.8.
`c1ccc(Oc2cccc(NC3=NCCC3)c2)cc1` gave Calb FLC -6, A1 inh 1.0, Beta cell apopt 5, T cruzi repl 8, B2AR ag -16, ALR inh -1 and LANA-H2A inh -4.3.
Screening COc1ccc([C@H]2CC(=O)C=C(c3ccccc3Oc3ccccc3)C2)cc1 returned A1 inh 0.0, Beta cell apopt 1, B2AR ag 0, ALR inh -5, LANA-H2A inh -1.6, rRNA inh HTS -2, rRNA inh HTS OD600 6 and rRNA inh HTS RFP -9.2.
For CCc1ccc(N2C(=O)C3C(C2=O)N2CCCN2C3c2ccccc2)cc1 (stereo unspecified) the results were Calb FLC -2, A1 inh 0.1, Beta cell apopt -13, T cruzi repl -14, B2AR ag 5, ALR inh 6, LANA-H2A inh -1.1, rRNA inh HTS -13, rRNA inh HTS OD600 -3 and rRNA inh HTS RFP 29.
Cc1ccc(OCc2ccc(C(=O)NCC3CCCO3)cc2)cc1 (stereo unspecified) was read as Calb FLC 11, A1 inh -1.1, Beta cell apopt -1, T cruzi repl -7, B2AR ag 0, ALR inh -5, LANA-H2A inh -3.4, rRNA inh HTS -7, rRNA inh HTS OD600 -4 and rRNA inh HTS RFP -0.4.
CC(C)(C)c1ccccc1NC(=S)NC1CCCCC1 was read as Calb FLC 14, A1 inh 0.1, Beta cell apopt 28, T cruzi repl 22, B2AR ag -2, ALR inh 52, LANA-H2A inh -4.4, rRNA inh HTS 10, rRNA inh HTS OD600 12 and rRNA inh HTS RFP 4.2.

Sorted by molar mass (low to high): 5 of the compounds above
For CC(=O)N(C)c1nc(-c2ccc(Cl)cc2)cs1 the results were Calb FLC -17, A1 inh -1.1, T cruzi repl -2, B2AR ag -2, ALR inh -2 and LANA-H2A inh -3.9.
`COC(=O)c1cc(=O)n(-c2ccc(C(F)(F)F)cc2)[nH]1` gave Calb FLC -32, A1 inh -0.4, Beta cell apopt -1, T cruzi repl -4, B2AR ag 7, ALR inh 54, LANA-H2A inh -3.0, rRNA inh HTS -19, rRNA inh HTS OD600 -5 and rRNA inh HTS RFP 14.
For C=CCn1c(SCc2ccccc2)nc2c1c(=O)[nH]c(=O)n2C the results were Calb FLC -10, A1 inh -0.5, Beta cell apopt 7, T cruzi repl -8, B2AR ag -3, ALR inh 12, LANA-H2A inh 3.0, rRNA inh HTS 3, rRNA inh HTS OD600 -2 and rRNA inh HTS RFP -0.2.
For CCc1ccc(N2C(=O)C3C(C2=O)N2CCCN2C3c2ccccc2)cc1 (stereo unspecified) the results were Calb FLC -2, A1 inh 0.1, Beta cell apopt -13, T cruzi repl -14, B2AR ag 5, ALR inh 6, LANA-H2A inh -1.1, rRNA inh HTS -13, rRNA inh HTS OD600 -3 and rRNA inh HTS RFP 29.
Cc1c(CN2CCC(n3nccc3NC(=O)CCc3ccccc3)CC2)cnn1C was read as Calb FLC 4, A1 inh 0.6, Beta cell apopt 1, T cruzi repl 1, B2AR ag -3, ALR inh -5, LANA-H2A inh -0.9, rRNA inh HTS 9, rRNA inh HTS OD600 6 and rRNA inh HTS RFP 1.0.

(further entries)
For Cc1ccc(C(=O)OCC(=O)Nc2ccc(N(C)C)cc2)cc1NC(=O)c1ccco1 the results were A1 inh -0.9, Beta cell apopt 3, T cruzi repl -1, B2AR ag -9, ALR inh 40 and LANA-H2A inh -2.1.
Screening O=C(CCNS(=O)(=O)c1ccccc1C(F)(F)F)Nc1ccncc1 returned A1 inh -1.4, Beta cell apopt 1, B2AR ag -3, ALR inh -7, LANA-H2A inh -4.4, rRNA inh HTS 3, rRNA inh HTS OD600 5 and rRNA inh HTS RFP -1.1.
`O=C(c1ccco1)c1nc2c(n1O)CCCCC2` gave Calb FLC 5, A1 inh 2.2, Beta cell apopt -1, T cruzi repl -10, B2AR ag 11, ALR inh -5 and LANA-H2A inh 1.9.
Screening CN1C(C)(C)CC(=NOC(=O)c2ccccc2)CC1(C)C returned Calb FLC -7, A1 inh -0.3, Beta cell apopt 8, T cruzi repl -5, B2AR ag 1 and LANA-H2A inh -3.7.
COc1ccc(F)cc1S(=O)(=O)N1CCN(Cc2ccc3c(c2)OCO3)CC1 was read as Calb FLC 0, A1 inh -0.3, Beta cell apopt 0, T cruzi repl 3, B2AR ag -2, ALR inh -17 and LANA-H2A inh -4.5.
`Cc1sc2c(c1C)CN(Cc1ccncc1)CN2C(=O)c1ccco1` gave Calb FLC 0, A1 inh -1.4, Beta cell apopt 0, T cruzi repl 10, B2AR ag -15, ALR inh 19 and LANA-H2A inh -2.7.
Screening CCN(CC(=O)Nc1c(F)cccc1F)C(=O)c1ccc(OCc2c(C)noc2C)cc1 returned A1 inh -0.3, Beta cell apopt 3, B2AR ag -2, ALR inh 4, LANA-H2A inh -6.7, rRNA inh HTS 3, rRNA inh HTS OD600 9 and rRNA inh HTS RFP -1.2.
COc1ccc(/C=N/N(C)C2=NS(=O)(=O)c3ccccc32)cc1OC was read as Calb FLC -25, A1 inh -0.2, Beta cell apopt -4, T cruzi repl -2, B2AR ag 11, ALR inh -6, LANA-H2A inh 2.3, rRNA inh HTS 15, rRNA inh HTS OD600 10 and rRNA inh HTS RFP -0.4.
ON1C(c2ccc(Cl)cc2Cl)N(O)[C@H]2CCCC[C@H]21 (stereo partly specified) was read as A1 inh inconclusive, Beta cell apopt 0, T cruzi repl 1, B2AR ag -7, ALR inh 0, LANA-H2A inh -0.2, rRNA inh HTS -1, rRNA inh HTS OD600 7 and rRNA inh HTS RFP -0.8.
`CC(C)NC(=O)C(c1ccc(F)cc1)N(Cc1ccco1)C(=O)CCC(=O)Nc1ccccn1` (stereo unspecified) gave Calb FLC 3, A1 inh -0.2, Beta cell apopt -1, T cruzi repl 14, B2AR ag -1, ALR inh 0, LANA-H2A inh 6.9, rRNA inh HTS 10, rRNA inh HTS OD600 7 and rRNA inh HTS RFP 1.8.
